# PV pol inh – poliovirus RNA polymerase inhibition. poliovirus polymerase elongation, fluorescence polarization; hits give low values. % elongation, % (compound at 16.7 µg/mL). 0.66% of 150,000 active. AID 588519; in the data active = % elongation below about 90%; also: some results filed as inactive read as strong as hits
# Target sequence (P03300 1749-2209 limits assumed): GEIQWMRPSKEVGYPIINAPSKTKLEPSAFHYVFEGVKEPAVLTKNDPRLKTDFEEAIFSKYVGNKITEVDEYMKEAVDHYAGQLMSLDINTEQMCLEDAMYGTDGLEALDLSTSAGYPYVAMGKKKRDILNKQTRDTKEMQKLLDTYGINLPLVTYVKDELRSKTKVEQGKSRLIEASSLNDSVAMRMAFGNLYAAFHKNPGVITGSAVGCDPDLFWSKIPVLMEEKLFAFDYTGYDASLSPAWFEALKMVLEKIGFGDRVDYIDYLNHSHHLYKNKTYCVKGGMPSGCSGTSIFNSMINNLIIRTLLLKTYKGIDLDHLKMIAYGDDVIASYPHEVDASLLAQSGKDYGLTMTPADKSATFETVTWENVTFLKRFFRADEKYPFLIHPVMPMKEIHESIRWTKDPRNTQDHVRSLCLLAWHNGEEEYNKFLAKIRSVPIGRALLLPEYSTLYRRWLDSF
# PV pol inh intensity – second read-out of PV pol inh, no call of its own (marks repeat the call); % elongation; measured here: total intensity read-out; formula for this scale not given here;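 total fluorescence in place of polarization; lower means less elongation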
# * hit, by the source's call.
# Every second line gives: PV pol inh | PV pol inh intensity
CC(=O)c1ccc(NC(=O)c2ccc3c(c2)N(Cc2cccc(Cl)c2)C(=O)c2ccccc2S3(=O)=O)cc1
→ 103 | 110
CCOC(=O)Cn1c(=O)oc2cc(S(=O)(=O)N3CCC(C(=O)OCC)CC3)ccc21
→ 103 | 104
Cc1cccc(N(C)S(=O)(=O)c2cc3c(cc2Cl)NC(=O)CO3)c1
→ 107 | 112
Cc1ccc(C(=O)c2cn(Cc3ccccc3F)c3cc4c(cc3c2=O)OCCO4)cc1
→ 109 | 106
Cc1ccc(-n2ncc3c(Nc4cccc(C(=O)O)c4)ncnc32)cc1
→ 102 | 101
Cc1ccc(S(=O)(=O)N2CCc3cc(C(=O)Nc4ccc(C(F)(F)F)cc4)ccc32)cc1
→ 111 | 106
CCCC1=Nc2cc(C(=O)NCCc3ccccc3)ccc2Sc2ccc(C)cc21
→ 109 | 109
COc1ccc(NC(=O)Cn2c(SCc3cccc(Cl)c3)nc3ccncc32)c(OC)c1OC
→ 103 | 105
CCOC(=O)c1ccc(NS(=O)(=O)c2cc(-c3onc(C)c3C)ccc2C)cc1
→ 105 | 103
CCOc1ccc(CCNC(=O)Cn2ncc3c(=O)oc4ccc(C)cc4c32)cc1
→ 105 | 109
CCC(=O)C1=C(c2cccc(OC)c2)N(C(=O)CC)n2c(nnc2C2CCCCC2)S1
→ 107 | 114
Cc1nc(N2CCCC2)c2c(C(=O)Nc3ccc(C)c(Cl)c3)c(C)oc2n1
→ 112 | 97
CCOC(=O)c1cccc(NC(=O)c2cc3c(=O)n(Cc4cccnc4)ccc3nc2C)c1
→ 115 | 108
Cc1ccc(NC(=O)c2cc(-c3cccs3)nc3ccccc23)c(C)c1
→ 108 | 112
COc1ccc(-c2cc(C(F)(F)F)n3nc(C(=O)Nc4ccccc4SC)cc3n2)cc1OC
→ 103 | 99
CC(=O)Nc1ccc(C)cc1-c1nc2ccccc2n(CC(=O)c2ccc(C)c(C)c2)c1=O
→ 100 | 101
CCNS(=O)(=O)c1ccc(NC(=O)CSc2nc(-c3ccco3)cc(C(F)(F)F)n2)cc1
→ 107 | 109
Cc1ccc(Nc2nnc(-c3ccc(C)c(S(=O)(=O)NCc4nc5ccccc5[nH]4)c3)c3ccccc23)cc1
→ 107 | 110
Cc1ccc(CNC(=O)c2sc3nc4n(c(=O)c3c2C)CCCC4)cc1
→ 107 | 114
COc1ccc(Br)cc1CC1C(=O)Nc2ccccc21 (stereo not given)
→ 106 | 110
CC(C)NC(=O)CSc1cn(CC(=O)N2CCCCCC2)c2ccccc12
→ 112 | 102
Cc1ccc(CNC(=O)C2CCCN(c3nc4ccccc4n4cccc34)C2)cc1 (stereo not given)
→ 108 | 116
CC(=O)c1cccc(Nc2ncnc3c2cnn3-c2cccc(Cl)c2)c1
→ 107 | 115
CCOc1ccc(NC(=O)C2CCN(C(=O)N3CC(C)Oc4ccc(Cl)cc43)CC2)cc1 (stereo not given)
→ 104 | 96
COc1cc(-c2nc3ccc(Cl)cn3c2Nc2ccc3c(c2)OCO3)ccc1O
→ 107 | 106
COc1ccccc1CNC(=O)CN1N=C(c2ccccc2)CCC1=O
→ 106 | 102
CCOC(=O)CSc1nc2ccccc2c(=O)n1-c1cccc(C)c1
→ 103 | 106
O=C(Nc1cccc(-c2nc3cc(Cl)ccc3o2)c1)c1cc([N+](=O)[O-])ccc1N1CCOCC1
→ 107 | 114
CC(=O)Nc1ccc(NC(=O)C(Cc2ccccc2)NS(=O)(=O)c2ccc3c(c2)oc(=O)n3C)cc1 (stereo not given)
→ 108 | 107
Cc1cc(C)c2c(CC(=O)Nc3ccccc3C(F)(F)F)coc2c1
→ 114 | 116
Cc1cc2c(cc1S(=O)(=O)CCC(=O)N(C)C1CCCCC1)OCC(=O)N2
→ 105 | 114
O=C(Nc1ccc(Cl)c(-c2nc3cc(Cl)ccc3o2)c1)c1cc([N+](=O)[O-])ccc1N1CCOCC1
→ 102 | 105
Cc1cc(Nc2ccccc2F)n2nc(Cc3ccc(Cl)cc3)nc2n1
→ 105 | 103
Cc1c(-c2nsc(NC(=O)c3cccs3)n2)nnn1-c1ccc(F)cc1
→ 106 | 109
COc1ccc(F)cc1S(=O)(=O)NCCc1csc(-c2ccc(Cl)cc2)n1
→ 105 | 109
COc1cc2ccccc2cc1C(=O)Nc1cccc(-c2nc3ccccc3o2)c1
→ 103 | 108
COc1ccc(N(C(=O)c2ccc(OC)c(OC)c2)S(=O)(=O)c2ccc(Cl)cc2)cc1
→ 101 | 104
O=c1c2sccc2n(Cc2cc(=O)n3cc(Cl)ccc3n2)c(=O)n1-c1ccccc1
→ 105 | 108
COc1ccc(NS(=O)(=O)c2cc(Br)cc3c2N(C(=O)C2CC2)CC3)cc1OC
→ 99 | 103
COc1cccc(Oc2nc(C)nc3c2oc2ccccc23)c1
→ 104 | 113

# (further entries)
Compound | PV pol inh | PV pol inh intensity
CCOc1ccc(CNC(=O)CCS(=O)(=O)c2cc3c(cc2Cl)NC(=O)CO3)cc1OC | 109 | 109
Cc1cc(NS(=O)(=O)c2ccc(NC(=O)COc3ccc(Br)cc3C)cc2)no1 | 103 | 104
CC(=O)C1=C(c2ccc(Br)cc2)N(C(C)=O)n2c(nnc2C2CCCCC2)S1 | 106 | 107
COc1ccc(CC(=O)Nc2cc(-c3cn4cccnc4n3)ccc2C)cc1OC | 111 | 113
CCOc1ccccc1NC(=O)C(CC(C)C)NS(=O)(=O)c1ccc2c(c1)CCN2C(C)=O (stereo not given) | 106 | 111
CCc1cnc2c(c1SC(C(C)=O)C(=O)N(C)C)c(=O)n(C)c(=O)n2C (stereo not given) | 100 | 100
COc1ccc(-c2nnc(SCC(=O)Nc3cccc(C(F)(F)F)c3)nc2-c2ccc(OC)cc2)cc1 | 107 | 109
Cc1ccc(-c2cn3c(n2)sc2cc(C(=O)NC4CCCc5ccccc54)ccc23)cc1 (stereo not given) | 113 | 106

# Part of the list above in order of heavy-atom count, lowest first:
Compound | PV pol inh | PV pol inh intensity
CCc1cnc2c(c1SC(C(C)=O)C(=O)N(C)C)c(=O)n(C)c(=O)n2C (stereo not given) | 100 | 100
CC(=O)C1=C(c2ccc(Br)cc2)N(C(C)=O)n2c(nnc2C2CCCCC2)S1 | 106 | 107
COc1ccc(CC(=O)Nc2cc(-c3cn4cccnc4n3)ccc2C)cc1OC | 111 | 113
COc1ccc(-c2nnc(SCC(=O)Nc3cccc(C(F)(F)F)c3)nc2-c2ccc(OC)cc2)cc1 | 107 | 109

# (next part)
Compound | PV pol inh | PV pol inh intensity
COc1ccccc1N1CCN(c2nc(-c3ccc(C)cc3)nc3ccccc23)CC1 | 109 | 104
CC(=O)c1ccc(N2CCN(c3ccc(NC(=O)c4cccs4)cc3C(=O)O)CC2)cc1 | 109 | 107
CCC(=O)Nc1ccc2nc(SCCOc3cccc(C)c3)sc2c1 | 109 | 100
Cc1cccc(-c2noc(-c3ccc(N4CCOCC4)c([N+](=O)[O-])c3)n2)c1 | 111 | 114
Cc1ccc(Cl)cc1N(C)C(=O)c1cc2c(Cl)nc3ccccc3c2s1 | 105 | 109
COc1ccc2c(c1)CCc1sc(NC(=O)c3cccc(Br)c3)nc1-2 | 101 | 106
Cc1ccc(CNC(=O)c2ccc(-n3cnc4cccnc43)cc2)cc1 | 112 | 113
CCOC(=O)c1cc(NC(=O)c2ccc(F)cc2)c(=O)n2c1oc1ccccc12 | 102 | 109
COc1cc(NC(=O)c2cc(S(=O)(=O)N3CCc4ccccc43)cn2C)cc(OC)c1OC | 109 | 106
COc1ccc(NC(=O)C2CCCN2S(=O)(=O)c2ccc3nc(-c4ccccc4)[nH]c3c2)cc1 (stereo not given) | 100 | 102
CCOc1ccccc1NC(=O)CSc1nc(-c2cccs2)cc(C(F)(F)F)n1 | 101 | 101
CCOc1ccc(NC(=O)CSc2nc(-c3ccc(F)cc3)cc(C(F)(F)F)c2C#N)cc1 | 109 | 109
CC(CNC(=O)CCS(=O)(=O)c1ccc2c(c1)oc(=O)n2C)c1ccccc1 (stereo not given) | 109 | 113
Cc1ccc(C(=O)NCCC(C)C)cc1NC(=O)c1nsc2ccccc12 | 104 | 106
O=C(Cn1c(-c2cccs2)cc2ccccc21)NCCc1ccc(Cl)cc1 | 107 | 102
CCS(=O)(=O)N1CC(=O)N(c2cccc(Cl)c2)C(C)(C(=O)NC2CCCCCC2)C1 (stereo not given) | 106 | 108
Cc1nn(Cc2ccccc2)c(C)c1NC(=O)c1cc(C(C)C)on1 | 104 | 107
Cc1cc(-n2c(C)nc3ccccc3c2=O)ccc1NC(=O)C(F)(F)F | 103 | 107
Cc1ccc2cccc(NC(=O)c3ccc(-c4cccc(Cl)c4)o3)c2n1 | 104 | 105
O=C(NCCc1ccccc1)C1CCN(Cc2cc3ccccc3n2Cc2ccccc2)CC1 | 110 | 112
CC(C)(C)OC(=O)N1CCC(c2c(C(=O)NCCN3CCOCC3)cnn2-c2cccc(Cl)c2)CC1 | 105 | 105
CCn1cc(C(=O)NCCCOC)c(=O)c2cc(S(=O)(=O)N3CCCC3)ccc21 | 105 | 107
O=C(c1cccc(Br)c1)N1CCN(Cc2cc(=O)n3nc(-c4ccccc4)sc3n2)CC1 | 107 | 104
Cc1ccc(-n2c(=O)c3ccc(C(=O)NCc4ccco4)cc3n(CC(=O)Nc3ccccc3C(F)(F)F)c2=O)cc1 | 109 | 111
COC(=O)c1cc(OC)c(OC)cc1NC(=O)c1ccc2c(c1)CCN2S(=O)(=O)c1ccccc1 | 108 | 114
CCC(C)NC(=O)c1c(C)oc2nc(C)nc(N3CCOCC3)c12 (stereo not given) | 110 | 118
Cc1cc(C)c(S(=O)(=O)NCC2CCC(C(=O)NCCc3ccccc3)CC2)c(C)c1 (stereo not given) | 100 | 113
CCc1cccc(NC(=O)CCS(=O)(=O)c2cc3c4c(c2)CCN4C(=O)CC3)c1 | 109 | 117
CC(=O)N1CCc2cc(Br)cc(S(=O)(=O)CCC(=O)N3CCN(c4ccccc4Cl)CC3)c21 | 102 | 102
COc1ccc(-n2cc(-c3ccccc3)c3c(NC4CCCCC4)ncnc32)cc1 | 107 | 105
CC(C)c1nc2ccc(C(=O)NCCCN3CCN(c4ccccc4F)CC3)cc2o1 | 105 | 101
CC1CCC(Nc2ncnc3onc(-c4ccc(Cl)cc4)c23)CC1 (stereo not given) | 111 | 109
COc1ccc(C(C)=O)cc1CSc1nc(NCc2ccccc2)c2ccccc2n1 | 109 | 113
CCN(C(=O)C1CCN(c2ncnc3c2nc2n3CCCCC2)CC1)c1cccc(Cl)c1 | 112 | 115
COc1ccc(NC(=O)CSc2nnc(-c3nonc3NC(C)=O)n2C)cc1Cl | 103 | 103
Cc1ccc(C2c3[nH]c4ccccc4c3CCN2C(=O)CSc2ccccc2)cc1 (stereo not given) | 109 | 112
COC(=O)c1ccc2c(=O)n(CCc3ccc(S(N)(=O)=O)cc3)c(SCC(=O)C(C)(C)C)nc2c1 | 103 | 105
COC(=O)c1ccc(NC(=O)CN(C)S(=O)(=O)c2ccc3c(c2)CCCC(=O)N3)cc1 | 111 | 118
O=C(C1CC1)N1CCN(c2nc3c(F)cc(F)cc3s2)CC1 | 105 | 102
COc1ccccc1CNC(=O)CCNS(=O)(=O)c1ccc2c(c1)CCCC(=O)N2 | 113 | 115
COC(=O)c1c(-c2ccc(Cl)cc2)noc1N1CCN(c2cc(C)ccc2C)CC1 | 104 | 97
CCOC(=O)c1cn(CC(=O)Nc2ccc(OC)cc2OC)nn1 | 105 | 106
CCOC(=O)c1c(-c2ccccc2)oc2ccc(N(C(C)=O)S(=O)(=O)c3ccc(C)cc3)cc12 | 105 | 110
CCn1c(SCC(=O)Nc2ccc(C)cc2Br)nnc1-c1nonc1NC(C)=O | 102 | 102
CCOc1ccccc1NC(=O)Cn1c(=O)ccc2cc(S(=O)(=O)N3CCCC3)ccc21 | 101 | 105
Cc1ccc(NC(=O)C2CCN(c3ncccn3)CC2)cc1F | 101 | 106
Cc1ccc(NC(=O)C2CCCN(S(=O)(=O)c3cn(C(C)C)cn3)C2)c(C)c1 (stereo not given) | 97 | 103
CCCN(Cc1cc2cccc(C)c2[nH]c1=O)C(=O)c1cccc(Cl)c1 | 118 | 120
COc1cc(NC(=O)CSc2nc3ccccc3nc2Cc2ccccc2OC)cc(OC)c1 | 104 | 108
O=C1CN(C(=O)COc2ccc(Cl)cc2)C(c2ccccc2)c2cc(Br)ccc2N1 (stereo not given) | 109 | 108
O=C(NCC(c1ccco1)S(=O)(=O)c1ccc(Cl)cc1)c1ccccc1F (stereo not given) | 110 | 112
CCC(=O)NCCc1sc2nc(-c3ccc(OC)cc3)nn2c1C | 104 | 100
Cc1cccc(C(=O)Nc2cc(-c3nc4cccnc4s3)ccc2C)c1 | 108 | 109
Cc1nnc(NC(=O)CSc2nc3c([nH]c4ccccc43)c(=O)n2-c2ccccc2)s1 | 99 | 101
CCOc1ccc(CNC(=O)C2CCN(c3nnc(-n4cccc4CNc4ccc(C)cc4)s3)CC2)cc1OC | 111 | 112
COc1cccc(Cn2nnc(C(=O)NCc3ccc(Cl)cc3Cl)c2N)c1 | 102 | 104

# Next results
Compound | PV pol inh | PV pol inh intensity
CCCn1c(=O)c2sccc2n2c(CCCC(=O)N3CCN(c4ccc(OC)cc4)CC3)nnc12 | 106 | 113
COC(=O)c1cccnc1-n1c(=O)c2cccnc2n(CC(=O)Nc2cccc(C)c2)c1=O | 109 | 110
O=C(CSc1nccn1-c1ccc(Cl)cc1)Nc1nc2ccccc2s1 | 109 | 109
O=C(c1cc2ccc3cccnc3c2[nH]1)N1CCN(c2cccc(Cl)c2)CC1 | 102 | 91
Cc1c(-c2ccccc2)c(=O)oc2ccc(OC(=O)N3CCOCC3)cc12 | 103 | 102
CC1CCc2c(sc(NC(=O)COc3ccccc3C(C)(C)C)c2C#N)C1 (stereo not given) | 95 | 94
CCOc1ccccc1C1CC(=O)NC(C)=C1C(=O)OC1CCCCCC1 (stereo not given) | 105 | 105
COc1ccc(N2CCN(C(=O)CCc3c(C)nc4c(-c5ccccc5)c(C)nn4c3C)CC2)cc1 | 111 | 115

# Filtered by structure, those above with a cyano group
Compound | PV pol inh | PV pol inh intensity
CCOc1ccc(NC(=O)CSc2nc(-c3ccc(F)cc3)cc(C(F)(F)F)c2C#N)cc1 | 109 | 109
CC1CCc2c(sc(NC(=O)COc3ccccc3C(C)(C)C)c2C#N)C1 (stereo not given) | 95 | 94

# Assay outcomes from PubChem BioAssay.

# Only part of the results is shown; count on the stated rates, not on these rows.
